HNF4A DNA FP: change in binding of human HNF4 alpha to DNA; AID 1224865; 0.3% of 360,000 active; activity change, % at 10 µM; HNF4a-FITC DNA binding, fluorescence polarization, 1 h; in the data active = activity change above about 30%, passing the limit was not always enough;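 also: controls were the assay level and a saturating level of protein; the project sought stronger binding though the title names inhibitors; some compounds called inactive have numbers as strong as hits; positive values seem to mean higher polarization but the record does not say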
Ecoli growth: blocks Escherichia coli growth | 0.21% of 330,000 active | OD600 absorbance (concentration not given with the values) | OD600, 23 h; active compounds read low;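 active = OD600 absorbance below the run mean of sample wells minus 3.6 SD, in any replicate, cut at about 0.56 in these data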;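 also: stock transfer was 300 nL into about 60 µL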
B2AR ag: activates human beta-2 adrenergic receptor causing internalization | 0.43% of 340,000 active | response, % (concentration not given with the values) | Am2.2-beta2AR cells, FAP receptor internalization, flow cytometry; reference of the scale not given here | P07550;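 active = response above a set limit, near 3 SD of response in nonfluorescent compounds, cut at about 42% in these data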;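 also: stock transfer was 100 nL into about 11 µL; a reference agonist was the positive control; negative values mostly stem from fluorescent compounds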
Target sequence (P07550 whole entry, looked up): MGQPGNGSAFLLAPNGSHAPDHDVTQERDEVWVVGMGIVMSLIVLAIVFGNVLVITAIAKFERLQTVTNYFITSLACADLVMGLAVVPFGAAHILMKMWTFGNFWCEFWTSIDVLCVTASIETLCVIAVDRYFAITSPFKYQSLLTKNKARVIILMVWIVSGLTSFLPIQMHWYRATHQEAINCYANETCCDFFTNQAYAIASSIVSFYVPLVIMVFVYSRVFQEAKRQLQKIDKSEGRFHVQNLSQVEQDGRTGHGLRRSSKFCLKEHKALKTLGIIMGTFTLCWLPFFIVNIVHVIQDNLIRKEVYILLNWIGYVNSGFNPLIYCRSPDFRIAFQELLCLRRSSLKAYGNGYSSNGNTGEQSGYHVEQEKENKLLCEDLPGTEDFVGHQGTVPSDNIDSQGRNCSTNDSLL
FGF22 binding: binders of recombinant human FGF22 by thermal shift | Q9HCT0 | SYPRO orange fluorescence; percent of sucrose octasulfate shift, DMSO zero | calls only at 9.99 µM | 1.5% of 340,000 active | AID 651658;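 active = melting point raised past a set limit in the mean and every replicate; three in four hits are not shown here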
Target sequence (Q9HCT0 whole entry, looked up): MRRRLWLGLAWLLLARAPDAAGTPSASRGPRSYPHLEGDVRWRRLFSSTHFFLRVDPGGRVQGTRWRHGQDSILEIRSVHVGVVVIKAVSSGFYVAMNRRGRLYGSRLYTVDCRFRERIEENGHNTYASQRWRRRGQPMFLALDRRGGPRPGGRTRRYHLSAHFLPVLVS
LANA-H2B inh: blocks KSHV LANA binding to histone H2A/H2B; Q9QR71; cell-free LANA-H2A/H2B peptide, fluorescence polarization; inhibition, % (concentration not given with the values); 0.6% of 320,000 active; AID 2629; in the data active = inhibition mostly above about 10%, no sharp cut-off; inactive = mostly below about 6.7%;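 also: stock transfer was 7.5 nL into about 10 µL; 0% = median of vehicle wells and 100% = median of positive control wells; one replicate is shown; the record names a cut of 25% in any replicate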
UCH37 inh: inhibitors of human deubiquitinating enzyme UCH37 | 0.33% of 330,000 active | purified proteasome/UCH37, Ub-AMC cleavage fluorescence | Q9Y5K5 | AID 588478 | inhibition, % (test concentration not listed);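 active = mean of two replicates above 20%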;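 also: 0% = compound-free wells with enzyme and 100% = wells lacking proteasome; stock transfer was 100 nL into about 20 µL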
Target sequence (Q9Y5K5 whole entry, looked up): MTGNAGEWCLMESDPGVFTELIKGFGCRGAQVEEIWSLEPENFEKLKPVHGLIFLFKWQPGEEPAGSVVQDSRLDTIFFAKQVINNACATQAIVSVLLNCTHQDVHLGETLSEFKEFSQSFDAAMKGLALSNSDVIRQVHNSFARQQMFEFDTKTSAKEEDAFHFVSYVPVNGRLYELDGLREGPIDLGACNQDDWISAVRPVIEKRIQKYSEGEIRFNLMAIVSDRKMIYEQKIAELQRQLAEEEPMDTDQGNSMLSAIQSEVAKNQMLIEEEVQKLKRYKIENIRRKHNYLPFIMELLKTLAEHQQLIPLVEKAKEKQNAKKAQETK
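Reagent: Ub-AMC substrate; assay system: Proteasome-associated human UCH37 deubiquitinase; controls: no-proteasome and no-compound wells; read-out: % inhibition of Ub-AMC cleavage fluorescence; timing: 30 min preincubation with enzyme, 25 min cleavage at room temperature; signal: AMC fluorescence from Ub-AMC cleavage, excitation 355 nm, emission 460 nm; buffer or medium: Tris-HCl pH 7.4 plus ovalbumin, ATP-MgCl2, DTT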
ALR inh: human ALR oxidase inhibition via reduced H2O2 | 3.8% of 290,000 active | inhibition, % (no concentration beside the values) | P55789 | AID 485317 | purified ALR, DTT oxidation, H2O2 HRP-luminol luminescence;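 active = mean and each replicate at 75% or more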;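 also: stock transfer was 7.5 nL into about 7.5 µL; 0% = neutral wells and 100% = wells with inactivated enzyme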
* hit, by the source's call; i = inactive; / = no result given. An excerpt; the hit share may differ from the screen's.

Value order: HNF4A DNA FP | UCH37 inh | B2AR ag | Ecoli growth | FGF22 binding | LANA-H2B inh | ALR inh
Oc1cccc(-c2nnc(-c3cccc(O)c3)nn2)c1
 : 3.1 | / | 3.5 | / | i | / | /
COc1ccc(NC(=O)C(c2ccc(C)cc2)N(C)C(=O)CNC(C)=O)cc1 (centres undefined)
 : -2.5 | 4.0 | 0.7 | 0.719 | / | -7.0 | /
CC1CCCCN1C(=O)COC(=O)C1CCN(S(=O)(=O)c2c(Cl)cccc2Cl)CC1 (centres undefined)
 : 2.3 | 2.3 | -2.1 | 0.7 | i | -6.0 | -1.9
O=c1[nH]c(CN2CCN(c3ncccn3)CC2)nc2c(Br)cc(Br)cc12
 : 4.6 | 4.5 | -8.3 | 0.729 | i | -5.5 | -2.3
O=C(c1cc2ccccc2c(=O)o1)N1CCCC1
 : / | -1.4 | / | 0.696 | i | -3.1 | -4.3
Cc1ccccc1COc1ccc(-c2nn[nH]n2)cc1
 : -1.0 | 5.7 | -0.2 | 0.684 | i | 2.3 | 41.7
O=c1c(-c2ccc(O)cc2)coc2c(C3O[C@H](CO)[C@@H](O)[C@H](O)[C@H]3O)c(O)ccc12 (some centres undefined)
 : 2.7 | -53.9 | 4.1 | 0.646 | i | 1.3 | 99.0*
CCCOC(=O)c1c(-c2ccc(OC)cc2)oc2ccc(-c3ccc(OC)nc3)cc12
 : 1.9 | / | -7.1 | / | i | -7.4 | 2.3
CCn1c(C)nc2cc(-c3nnc(-c4c(-c5ccccc5)noc4C)o3)ccc21
 : 2.5 | 0.4 | -6.4 | 0.712 | / | -3.1 | -9.8
CC(=O)NCC(=O)OC(C)C(=O)Nc1ccc(C(C)=O)cc1 (centres undefined)
 : -3.9 | 1.5 | -1.1 | 0.65 | / | -2.1 | -27.2
O=C(O)c1ccc(N=C2SCC(=O)N2Cc2ccccc2)cc1
 : 0.7 | 2.4 | 7.7 | 0.728 | i | 4.8 | 1.9
COC(=O)c1ccccc1NC(=O)CSc1n[nH]c(-c2cccnc2)n1
 : -5.3 | 3.5 | 1.0 | 0.654 | i | 2.0 | 1.0
Cc1onc(-c2c(F)cccc2Cl)c1C(=O)Nc1cccc(S(=O)(=O)N2CCOCC2)c1
 : 1.8 | 3.0 | 1.7 | 0.709 | i | 8.6 | -0.6
COc1cccc(OC)c1NC(=O)CN(C)S(=O)(=O)c1ccc2c(c1)OCCO2
 : -0.3 | 2.9 | -8.0 | 0.709 | i | -4.1 | -1.7
COc1cccc2c1OCC(C(=O)NCc1ccc(Cl)cc1Cl)=C2
 : -0.7 | -0.7 | 1.9 | 0.615 | / | -4.5 | 15.2
O=C(OCCN1CCOCC1)c1ccc(Cl)cc1Cl
 : 4.2 | 2.5 | -5.6 | 0.67 | i | -4.0 | -2.6
CC(=O)Nc1ccc(S(=O)(=O)NNC2=NS(=O)(=O)c3ccccc32)cc1
 : 0.7 | 1.8 | 4.3 | 0.716 | / | -0.6 | 58.3
C=CCSc1nnc(-c2cccc3ccccc23)o1
 : 2.3 | 1.7 | 1.1 | 0.675 | i | / | /
CCCCNC(=S)N(C)/N=C/c1ccc(F)cc1
 : -0.3 | / | -10.1 | / | / | -6.5 | -0.2
Cc1cc(Nc2c(C#N)c(N)nn2C)ccc1F
 : 1.7 | 2.7 | 11.8 | 0.699 | i | -3.8 | 22.5
CCOc1ccccc1C1C2CCCCC2(O)CCN1C(=O)c1cccs1 (centres undefined)
 : -2.1 | 3.5 | 9.1 | 0.668 | / | 0.0 | /
COc1ccc(NC(=O)COC(=O)CNS(=O)(=O)c2ccc(F)c(F)c2F)cc1OC
 : -2.4 | 5.7 | -6.3 | 0.712 | / | 6.1 | -57.8
Cc1cc(C(=O)N/N=C/c2ccncc2)c(C)o1
 : 7.5 | / | 3.4 | / | i | 0.8 | -3.3
CCCCNC(=O)C(C#N)c1nc2ccccc2nc1N1CCN(Cc2ccc3c(c2)OCO3)CC1 (centres undefined)
 : 2.6 | -0.5 | 14.1 | 0.737 | / | / | /
C=CCn1c(C(C)NC(=O)c2ccc(C)cc2)n[nH]c1=S (centres undefined)
 : -0.7 | 1.0 | 7.7 | 0.692 | i | 4.2 | 95.4*
Cc1noc(C)c1COC(=O)COc1ccc(-c2ccccc2)cc1
 : 1.1 | 0.0 | -1.5 | 0.694 | i | -1.8 | /
CC(=O)c1cc(OC(=O)c2ccncc2)ccc1OC(=O)c1ccncc1
 : -0.7 | 3.0 | -3.2 | 0.68 | / | 2.3 | 23.5
CC(C)C(=O)Nc1nnc(SCC(=O)NCc2ccco2)s1
 : -0.9 | 2.7 | -4.0 | 0.639 | / | -4.8 | -1.8
CCc1ccccc1NC(=O)CCNS(=O)(=O)c1cc(Br)cnc1N
 : 1.1 | -0.4 | -4.2 | 0.679 | i | 4.9 | 3.8
COCc1cc(CN2CCCC(CNC(=O)c3ccc(F)cc3)C2)ccc1OC (centres undefined)
 : -0.8 | 4.6 | 3.5 | 0.674 | i | -0.2 | -4.4
CCc1ccc(NC(=O)CCCn2nc(CC)n3c(cc4occc43)c2=O)cc1
 : 1.2 | -0.1 | 5.1 | 0.634 | i | 2.3 | 2.8
CC(C)CC(=O)Nc1ccc(Oc2ccc3c(c2)C(=O)NC3=O)cc1
 : 3.0 | -1.4 | 7.2 | 0.704 | i | -0.5 | -5.2
O=c1c2cc(O)c(O)cc2oc2cc(O)c(C3OC(CO)C(O)C(O)C3O)c(O)c12 (centres undefined)
 : -11.6 | 15.6 | -8.0 | 0.712 | i | -3.4 | 99.3*
Cc1nnc(CN(C)C(=O)c2cc(COc3ccc(C)c(C)c3)on2)o1
 : 2.2 | 6.3 | 0.1 | 0.659 | i | 3.0 | -1.1
COC(=O)CN(c1nc(C)cc(OC)n1)S(=O)(=O)c1ccc(C)cc1
 : 2.9 | 3.1 | -3.5 | 0.76 | / | 2.5 | 3.0
CN(CC(=O)Nc1ccccc1Sc1ccccc1)C1CCCCC1
 : -3.5 | 4.0 | 8.2 | 0.676 | i | -2.4 | /
N#C/C(=C\c1ccc(OCc2ccccc2)cc1)C(=O)Nc1ccc(C(=O)O)cc1
 : / | -63.0 | / | 0.671 | i | 4.1 | 3.9
CCC(C)N(C(=O)CSc1nnc(NC(C)C)s1)C1CCS(=O)(=O)C1 (centres undefined)
 : -0.4 | 0.4 | -4.0 | 0.596 | i | -1.1 | -11.1
CC(C)(C)NC(=O)Cc1ccc(Cl)c(Cl)c1
 : 3.6 | 0.3 | -5.1 | 0.697 | i | -2.7 | -9.3
Cc1ccc(-c2nn(CC(=O)NCc3ccccn3)c(=O)c3ccccc23)cc1S(=O)(=O)N(C)C
 : -0.8 | 6.7 | 10.7 | 0.66 | i | 1.4 | -8.7
S=C(NC1CCCC1)N1CCN(c2ccc(Cl)cc2)CC1
 : 1.3 | 3.2 | -5.0 | 0.637 | i | -6.9 | 38.6
Cc1cc(CNC(=O)c2cccc(OC3CCN(S(=O)(=O)N(C)C)CC3)c2)on1
 : 2.2 | 4.0 | -0.6 | 0.695 | i | 4.5 | 5.2
Cc1ccccc1Oc1nnc(-c2cccs2)c2ccccc12
 : 2.0 | 2.3 | -38.3 | 0.724 | i | / | /
O=C(Cn1cccc1C(=O)c1ccccc1)NCc1cccc(Cl)c1
 : 2.9 | 2.7 | 0.4 | 0.657 | i | -0.9 | -17.3
C[N+]1(CC(O)COCC2COc3ccccc3O2)CCOCC1 (centres undefined)
 : -2.6 | -0.2 | 0.1 | 0.6 | i | 9.6 | -5.5
Cc1cccc(NC(=O)Cn2c(=O)n(CC3CCCO3)c(=O)c3ccccc32)c1 (centres undefined)
 : -0.4 | 3.5 | -1.7 | 0.716 | i | -5.4 | 7.0
COc1ccc(CN(C)C(=O)c2ccc(NS(=O)(=O)c3ccc4[nH]c(=O)[nH]c4c3)cc2)c(OC)c1
 : -0.1 | 5.6 | 6.5 | 0.686 | i | -2.4 | 3.1
O=C(N/N=C/c1ccccc1OC(=O)N1CCOCC1)c1cccs1
 : -1.8 | / | -7.8 | / | i | -2.8 | -10.7
Cc1ccc(S(=O)(=O)N2CCN(C3CC(=O)N(c4ccc(F)cc4)C3=O)CC2)cc1C (centres undefined)
 : -4.4 | / | 4.2 | / | i | -0.3 | -0.9
COc1ccc(CSc2nnc(Cc3sc(-c4ccccc4)nc3-c3ccccc3)o2)cc1
 : -1.7 | 8.6 | -14.8 | 0.732 | / | -3.8 | -1.8
O=C(Oc1cccc(Nc2ncnc3ccccc23)c1)c1cccnc1
 : 1.8 | 1.6 | -6.1 | 0.672 | / | -0.6 | -5.9
CC1=C(C(=O)OCC2CCCCC2)C(c2cccc(O)c2)NC(=O)N1 (centres undefined)
 : -4.3 | / | -2.0 | / | / | -1.3 | 1.8
CCOC(=O)N1CCN(Cc2nc(N)nc(Nc3ccc(C)cc3C)n2)CC1
 : -3.6 | -0.1 | -4.8 | 0.676 | i | 4.5 | -2.6
COc1cc(C(=O)COC(=O)c2ccncc2)cc(OC)c1OC
 : 0.3 | 1.4 | -2.5 | 0.671 | i | -5.4 | -9.4
COc1ccc(C(CNC(=O)CSc2ccccc2C)N(C)C)cc1 (centres undefined)
 : 1.4 | 1.4 | -2.3 | 0.708 | i | -3.7 | -14.4
COc1ccc(NC(=O)CSc2nnc(C3CCCCC3)n2-c2ccccc2)cc1
 : -1.9 | 4.0 | 0.9 | 0.706 | / | -0.1 | -3.5
N#Cc1c(-c2ccc(Cl)cc2)cc(-c2cccs2)nc1SCC(=O)O
 : 2.2 | / | 16.2 | / | i | 0.3 | /
Cc1occc1-c1nnc(SCC(=O)NC(C)(C)C)n1C(C)c1ccccc1 (centres undefined)
 : -0.8 | 0.1 | 2.8 | 0.735 | / | 1.0 | 0.3
COc1ccc(NC(=O)CSc2nccn2C)c([N+](=O)[O-])c1
 : 2.9 | -0.4 | -6.5 | 0.737 | i | 4.9 | -9.6
C=CCOc1ccc2ccccc2c1CNCCCN1CCOCC1
 : 3.9 | 8.4 | -5.4 | 0.631 | / | 0.5 | -9.5

Next records follow:
Value order: HNF4A DNA FP | UCH37 inh | B2AR ag | Ecoli growth | FGF22 binding | LANA-H2B inh | ALR inh
COC(=O)c1[nH]c(C)c(/C(O)=C2\C(=O)C(=O)N(CCCN3CCOCC3)C2c2ccccn2)c1C (centres undefined)
 : 1.9 | 12.4 | 0.7 | 0.75 | / | 2.0 | -96.5
N#C/C(=C/c1ccc(N2CCCCC2)o1)c1cccc(F)c1
 : 106.8 | 5.5 | -70.5 | 0.722 | i | 6.2 | /
CCn1c(SCC(=O)N2CCCC(C)C2)nnc1-c1ccc(S(=O)(=O)N2CCN(C)CC2)cc1 (centres undefined)
 : -1.9 | 4.7 | -1.3 | 0.665 | / | -1.7 | -4.6
Nc1cc(S(=O)(=O)O)cc2ccc(S(=O)(=O)O)cc12
 : -6.8 | i | 4.2 | 0.683 | i | / | /
Cc1cc(NC2CCCCC2)nc(N2CCOCC2)n1
 : 1.1 | 4.0 | -5.5 | 0.661 | / | -0.8 | 3.6
CC(=O)Nc1cccc(NC(=O)c2cccc(S(=O)(=O)N3CCN(Cc4ccccc4)CC3)c2)c1
 : 1.2 | 1.0 | 1.0 | 0.625 | / | 0.5 | -7.5
CC(=O)c1c(C)[nH]c(C(=O)COC(=O)Cc2ccccc2F)c1C
 : 0.5 | 0.8 | 58.7* | 0.702 | i | -2.2 | 1.9
Cc1ccccc1C(=O)Nc1ccc(C(=O)N/N=C/c2ccncc2)cc1
 : 0.6 | / | -14.7 | / | i | 4.0 | -2.9
CC(=O)Nc1ccc(S(=O)(=O)N2CCCC(C(=O)N3CCN(c4ccccc4)CC3)C2)cc1 (centres undefined)
 : -0.3 | 3.9 | -4.8 | 0.697 | i | -7.3 | 17.6
O=C(Nc1ccccc1)C(Cc1ccccc1)c1ccccc1 (centres undefined)
 : 1.7 | 1.5 | 1.0 | 0.718 | i | / | /
